Assay outcomes deposited in PubChem by several laboratories.
Arbovirus anti: arbovirus infection inhibition; inhibition, % at 10 µM; hit rate 0.37% among 200,000; arbovirus infection cell-based antiviral screen;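 active = inhibition from about 30%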;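 note: bluetongue infection of BSR cells; cell survival read as ATP light after 72 h; 0% = infected wells without compound and 100% = uninfected wells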
RecA intein inh: inhibitors of M. tuberculosis RecA intein splicing; P9WHJ3; cell-free RecA intein splicing, fluorescence; AID 2221; hit rate 0.75% among 290,000; inhibition, %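 (about 9 µM by stock and volumes)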; in the data active = inhibition above about 30%; inconclusive = no clear call, values can overlap the other calls;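 note: 0% = vehicle wells and 100% = reference inhibitor control wells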
Target sequence (P9WHJ3 whole entry, looked up): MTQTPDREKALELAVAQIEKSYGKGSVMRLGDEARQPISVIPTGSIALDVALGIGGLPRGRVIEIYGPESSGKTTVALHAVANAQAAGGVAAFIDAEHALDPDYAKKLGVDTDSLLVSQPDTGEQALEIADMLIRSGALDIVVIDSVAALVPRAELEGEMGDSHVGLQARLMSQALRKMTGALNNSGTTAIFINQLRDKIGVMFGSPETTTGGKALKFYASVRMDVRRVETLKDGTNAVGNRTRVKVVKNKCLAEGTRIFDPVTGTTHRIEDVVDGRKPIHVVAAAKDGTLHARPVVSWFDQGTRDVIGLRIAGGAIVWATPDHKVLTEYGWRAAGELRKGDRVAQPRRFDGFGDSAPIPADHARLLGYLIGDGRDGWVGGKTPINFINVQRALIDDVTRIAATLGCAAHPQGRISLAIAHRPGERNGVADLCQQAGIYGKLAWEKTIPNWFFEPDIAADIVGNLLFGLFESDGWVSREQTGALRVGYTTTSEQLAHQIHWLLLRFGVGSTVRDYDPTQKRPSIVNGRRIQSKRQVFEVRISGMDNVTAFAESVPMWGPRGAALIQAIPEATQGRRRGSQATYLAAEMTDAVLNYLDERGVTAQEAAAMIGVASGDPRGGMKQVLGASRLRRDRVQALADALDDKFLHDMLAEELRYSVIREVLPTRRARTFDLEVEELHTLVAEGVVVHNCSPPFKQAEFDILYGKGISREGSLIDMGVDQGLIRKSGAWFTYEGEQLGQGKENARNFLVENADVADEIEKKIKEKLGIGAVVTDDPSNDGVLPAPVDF
Mtb betalactam: beta-lactam sensitization of Mtb H37Rv. M. tuberculosis H37Rv growth with meropenem, percent inhibition; hits of this screen are not shown here. inhibition, % at 25 µM. AID 434955. hit rate 0.27% among 330,000;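 active = about 74% or more and at least 40 points above the plate without the antibiotic, then above 30% in a dose series; inconclusive = first-round hits that could not be retested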;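 note: growth measured after seven days incubation then overnight dye step; 0% = bacteria only wells and 100% = bacteria with antibiotic; twin plates without the antibiotic show which effects depend on it; some results filed as inactive read as strong as hits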
YopH inh: YopH (Yersinia) phosphatase inhibition; fluorescence Ex485/Em525; inhibition, %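 (about 10 µM by stock and volumes)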; hit rate 0.16% among 140,000; AID 898;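 active = inhibition of 50% or more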;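 note: controls were vehicle for no effect and minimum signal wells for full effect; inactives centre near -20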
Mtb growth: M. tuberculosis H37Rv growth inhibitors, H37Rv strain (AID 1626). M. tuberculosis H37Rv growth inhibition; higher % means a stronger effect. inhibition, % at 10 µM; hits with a dose series show IC50 in µM. hit rate 0.95% among 220,000;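 active = confirmed in a dose series; inconclusive = inhibition above 80% but not taken into the dose series; inactive = below 80% or under 30% at every dose of the series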;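 note: bacteria incubated seven days before Alamar blue readout; 0% = bacteria only wells and 100% = bacteria with antibiotic wells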
Arbovirus anti repeat: further read-out of Arbovirus anti, marked with its call; inhibition, %; measured here: 10K subset replicate screen; many hits read low in the repeat;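 first of two repeat runs on a subset; 0% = infected and 100% = uninfected wells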
* = called active by the depositor; ? = inconclusive; . = not tested or not shown; & = joins results of further samples. The list is partial; the hit share may differ from the screen's.

The first 13 entries as a preview:
SMILES | Arbovirus anti | RecA intein inh | Mtb betalactam | YopH inh | Mtb growth | others
COc1ccc(OCC(O)CNC(=O)Nc2ccc(F)cc2)cc1 (stereo not drawn) | . | 2.1 | -2.2 | . | -9.2%
COc1ccc2[nH]c(=O)c(CN(CC3CCCO3)C(=S)Nc3cccc(C)c3)cc2c1 (stereo not drawn) | -8.0 | 2.1 | 17.8 | . | 3.5%
Cc1cc(C)n(-c2ccc(C(=O)NCc3ccc4c(c3)OCO4)cc2)n1 | -25.5 | 1.1 | 1.8 | -30.5 | -4.6%
C=CCn1c(N)c(C(=O)Nc2ccccc2OC)sc1=S | 0.8 | 2.0 | 15.8 | -50.4 | 1.9%
CCOc1cc(CNc2ncnc3nc[nH]c23)ccc1OC | 0.6 | -2.1 | -6.1 | -11.7 | -2.9%
Cc1ccc(C(=O)N/N=C\c2ccc([N+](=O)[O-])o2)cn1 | . | 13.8 | 99.8 | . | 3.9%
NC(=O)NCCCC(=O)NCC(c1ccccc1Cl)c1c[nH]c2ccccc12 (stereo not drawn) | . | 4.1 | 3.6 | . | .
CC(=O)C[C@H]1c2ccccc2S(=O)(=O)N1c1ccccc1 | . | 1.5 | 4.0 | . | 10.7%
CCNC(=O)C/C(C)=N/NC(=O)C1CCCCC1 | -3.6 | 6.3 | 1.6 | -12.6 | 6.0%
CC(C)(C)c1ccc(C(=O)COC(=O)CN2C(=O)NC3(CCCC3)C2=O)cc1 | . | 0.2 | -3.4 | . | .
COc1ccc(N2C(=O)N3[C@H](c4ccc(Cl)cc4)[C@@H]4C(=O)N(C5CCCCC5)C(=O)[C@@H]4[C@]3(C)C2=O)cc1 | . | 0.9 | 45.1 | . | .
COc1ccc(/C=N/NC(=O)Cc2ccc(Cl)cc2)cc1OC | 1.7 | 0.5 | 5.4 | . | 0.7%
CCn1cc(C(C)(C)C)c(C#N)c1NC(C)=O | -2.0 | -0.8 | 4.6 | 10.2 | -8.6%

Main list, from the first entry:
SMILES | Arbovirus anti | RecA intein inh | Mtb betalactam | YopH inh | Mtb growth | others
COc1ccc(OCC(O)CNC(=O)Nc2ccc(F)cc2)cc1 (stereo not drawn) | . | 2.1 | -2.2 | . | -9.2%
COc1ccc2[nH]c(=O)c(CN(CC3CCCO3)C(=S)Nc3cccc(C)c3)cc2c1 (stereo not drawn) | -8.0 | 2.1 | 17.8 | . | 3.5%
Cc1cc(C)n(-c2ccc(C(=O)NCc3ccc4c(c3)OCO4)cc2)n1 | -25.5 | 1.1 | 1.8 | -30.5 | -4.6%
C=CCn1c(N)c(C(=O)Nc2ccccc2OC)sc1=S | 0.8 | 2.0 | 15.8 | -50.4 | 1.9%
CCOc1cc(CNc2ncnc3nc[nH]c23)ccc1OC | 0.6 | -2.1 | -6.1 | -11.7 | -2.9%
Cc1ccc(C(=O)N/N=C\c2ccc([N+](=O)[O-])o2)cn1 | . | 13.8 | 99.8 | . | 3.9%
NC(=O)NCCCC(=O)NCC(c1ccccc1Cl)c1c[nH]c2ccccc12 (stereo not drawn) | . | 4.1 | 3.6 | . | .
CC(=O)C[C@H]1c2ccccc2S(=O)(=O)N1c1ccccc1 | . | 1.5 | 4.0 | . | 10.7%
CCNC(=O)C/C(C)=N/NC(=O)C1CCCCC1 | -3.6 | 6.3 | 1.6 | -12.6 | 6.0%
CC(C)(C)c1ccc(C(=O)COC(=O)CN2C(=O)NC3(CCCC3)C2=O)cc1 | . | 0.2 | -3.4 | . | .
COc1ccc(N2C(=O)N3[C@H](c4ccc(Cl)cc4)[C@@H]4C(=O)N(C5CCCCC5)C(=O)[C@@H]4[C@]3(C)C2=O)cc1 | . | 0.9 | 45.1 | . | .
COc1ccc(/C=N/NC(=O)Cc2ccc(Cl)cc2)cc1OC | 1.7 | 0.5 | 5.4 | . | 0.7%
CCn1cc(C(C)(C)C)c(C#N)c1NC(C)=O | -2.0 | -0.8 | 4.6 | 10.2 | -8.6%
N#C/C(=N\Nc1cccc(C(F)(F)F)c1)C(=O)c1ccsc1 | . | -1.3 | 1.6 | . | 8.4%
Cc1ccc2c(c1)C1CN(C)CCC1N2S(=O)(=O)c1ccc(Oc2ccc([N+](=O)[O-])cc2)cc1 (stereo not drawn) | -21.8 | 15.6 | 84.0 | . | -2.6%
O=S(=O)(CCc1ccccc1)/N=C/c1cccs1 | 0.9 | -3.8 | -5.4 | -26.4 | 1.4%
COc1cccc(NC(=O)CSc2nnc(-c3cc(C)n(-c4ccccc4)c3C)o2)c1 | -18.0 | 16.7 | 4.1 | -16.3 | -3.0%
CCOC(=O)C1CCN(C(=O)C2CCCN(c3ncnc4c3nc3n4CCCCC3)C2)CC1 (stereo not drawn) | . | 1.5 | -4.8 | . | .
CCC(=O)N1c2ccccc2NC2=C(C(=O)CC(C)(C)C2)C1c1cccnc1 (stereo not drawn) | 2.3 | 0.2 | -8.3 | . | -6.1%
CCS(=O)(=O)c1ccc(-c2cccc(NC(=O)c3ccco3)c2)nn1 | . | 0.9 | -2.4 | . | .
O=C1c2cccc3cccc(c23)C(=O)N1c1cccnc1 | 0.8 | -0.6 | 2.8 | -45.1 | -2.4%
Cc1ccc(S(=O)(=O)N2CCCC2C(=O)N(C)Cc2cccs2)cc1 (stereo not drawn) | 0.8 | 0.8 | -7.2 | -32.7 | -13.1%
Cc1c(NC(=O)COC(=O)c2ccc[nH]c2=O)c(=O)n(-c2ccccc2)n1C | -9.4 | -1.6 | 5.4 | -20.1 | -1.7%
O=C(N1CCCCC1)C1(S(=O)(=O)c2ccccc2)CC=CC1 | . | 0.5 | -2.2 | . | .
CN(C)S(=O)(=O)c1cccc(NC(=O)c2cccc(S(=O)(=O)N3CCCCC3)c2)c1 | . | -0.3 | 7.3 | . | .
CCN(Cc1ccccc1)C(=O)CC1Oc2ccccc2NC1=O (stereo not drawn) | 16.9 | . | 3.0 | -26.5 | -9.6%
COc1ccc(S(=O)(=O)N2CCCCCC2)cc1C(=O)OCC(=O)NC(C)(C)C | 5.3 | -1.0 | -1.5 | . | 4.9%
Cc1nn(CCC(=O)O)c(C)c1C | -1.7 | . | -1.8 | -20.2 | 0.8%
CCCCCCC(=O)Nc1ccc(S(=O)(=O)Nc2onc(C)c2C)cc1 | . | -1.0 | 2.1 | . | .
COC(=O)c1ccc(Oc2nc(C(N)=O)cc(-c3ccccc3)n2)cc1 | 5.3 | 5.3 | 10.3 | -20.1 | 8.7%
CCOC(=O)c1cc(-c2cccs2)nn1CCC#N | -10.7 | -2.9 | 1.7 | -30.6 | .
CCCCCCC(=O)Nc1nc(C)c(-c2csc(Nc3cc(Cl)ccc3OC)n2)s1 | -6.4 | 1.9 | . | -40.6 | 61.1%
Cc1nc(SCc2ccccc2)c(C(F)(F)F)c(=O)[nH]1 | 6.6 | -0.2 | 0.1 | -14.5 | 1.9%
Nc1ncc(-c2cc3ccccc3oc2=O)s1 | -9.2 | -5.1 | 3.0 | 1.2 | -8.3%
Cc1ccc2nc(-c3ccccn3)cc(C(=O)NC3CCN(C)CC3)c2c1 | 15.6 | 3.1 | . | -15.9 | 3.4%
CCOC(=O)CC1=C(C(=O)OCC)C2(C(=O)Nc3ccccc32)C(C#N)=C(N)O1 (stereo not drawn) | 3.7 | 6.7 | 7.1 | -22.2 | -1.2%
COc1ccc(C(=O)c2ccc(N3CCN(C4CC(=O)NC4=O)CC3)cc2)cc1F (stereo not drawn) | -3.6 | 5.3 | -11.0 | 20.1 | 8.0%
CN(C)c1ccc(NC(=O)c2cccc([N+](=O)[O-])c2)c2ccccc12 | . | 14.5 | 1.3 | . | .
CCn1cc(SCC(=O)NCC2CCCO2)c2ccccc21 (stereo not drawn) | 3.9 | -0.6 | 5.1 | . | 2.8% | Arbovirus anti repeat=-0.7
CCOC(=O)Cn1cnc2c(nnn2-c2ccc(C)cc2)c1=O | 2.6 | 1.6 | -17.1 | -19.1 | -5.0%
COc1ccc(CNC(=O)CN(Cc2ccc(C)cc2)S(=O)(=O)c2ccc(Cl)cc2)cc1 | -3.6 | -2.3 | -9.6 | -9.7 | -0.8%
Cc1cc(C)nc(NC(=O)/C=C/c2ccc3c(c2)OCO3)c1 | -27.8 | 0.8 | 4.5 | 14.6 | 3.9%
O=C(NCCCN1CCOCC1)C1CCN(S(=O)(=O)c2ccccc2)CC1 | . | -1.4 | 1.3 | . | .
O=C(CSC1CS(=O)(=O)c2cc([N+](=O)[O-])ccc21)NNC(=O)c1ccc(Cl)cc1 (stereo not drawn) | . | -2.8 | 89.5 | . | ?
COCC(=O)N1CCCC(C(=O)c2ccc3c4c(cccc24)CC3)C1 (stereo not drawn) | -0.1 | 7.9 | -3.0 | . | -3.5%
CC(=O)Nc1ccccc1C(=O)C(=O)Nc1cccc(C(=O)NCC2CCCO2)c1 (stereo not drawn) | 6.6 | 0.5 | -10.6 | . | 2.0%
COc1ccc(S(=O)(=O)N2CCCOC2CNC(=O)C(=O)NCc2ccccn2)cc1 (stereo not drawn) | . | -1.0 | -3.8 | . | .
COc1cc(/C=C/C(=O)Nc2nnc(CC(C)(C)C)s2)cc(OC)c1OC | 7.7 | -1.1 | -3.4 | -26.6 | -3.0%
CCc1ccc(-c2cc(C(F)(F)F)n3nc(C(=O)Nc4c(C)nn(Cc5ccc(F)cc5)c4C)cc3n2)s1 | -0.5 | -98.5 | 96.2 | 0.2 | 16.2µM*
COc1ccc(C2NC(=S)NC3=C2CCCC3=C2SCCS2)cc1 (stereo not drawn) | -8.7 | 4.6 | 3.1 | . | -4.5%
Cc1nc2ccccc2c2c1C(=O)N(Cc1cccnc1)C2=O | 5.4 | 53.7* | 2.6 | -9.6 | 2.7%
O=C1OC(c2cccs2)=N/C1=C\c1ccc(-c2ccccc2Cl)o1 | -0.7 | 2.6 | . | -5.4 | 4.6%
CCCCNC(=O)Nc1ccccc1CC | . | -0.3 | 1.1 | . | -8.7%
CCN(Cc1ccccc1)C(=O)c1ccc(C(=O)N(CC)Cc2ccccc2)cc1 | . | 2.4 | -5.8 | . | .
COCC(C)OC(=O)c1c(N)n(CC(C)C)c2nc3ccccc3nc12 (stereo not drawn) | -10.5 | -201.3 | -10.5 | -13.6 | -9.1%
CCOC(=O)N1CCN(C(=O)C2CCN(C(=O)c3ccc([N+](=O)[O-])cc3)CC2)CC1 | . | 1.3 | ? | . | .
O=C(NCCC1CCCCN1S(=O)(=O)c1ccc(F)cc1)C(=O)Nc1ccccc1 (stereo not drawn) | . | 1.4 | -8.1 | . | .
Cc1cc(C)cc(C(=O)Oc2coc(CSc3nnc(NC(=O)C4CC4)s3)cc2=O)c1 | -16.2 | -0.1 | 0.1 | -14.6 | .
Cn1cc(S(=O)(=O)Nc2cccc3ccccc23)c(=O)n(C)c1=O | . | 0.5 | 2.5 | . | .
CC(NC(=O)COC(=O)CSc1ccc(F)cc1)c1ccc(F)cc1 (stereo not drawn) | . | -2.0 | -6.7 | . | .

Overlap with the part before: two compounds, followed by the next part.
SMILES | Arbovirus anti | RecA intein inh | Mtb betalactam | YopH inh | Mtb growth | others
Cn1cc(S(=O)(=O)Nc2cccc3ccccc23)c(=O)n(C)c1=O | . | 0.5 | 2.5 | . | .
CC(NC(=O)COC(=O)CSc1ccc(F)cc1)c1ccc(F)cc1 (stereo not drawn) | . | -2.0 | -6.7 | . | .
Cc1ccc2nc(C)c3c(c2c1)SCC3 | . | -1.9 | 0.7 | . | 59.8%
CCN(CC)N=Nc1ccc(S(=O)(=O)Nc2nc(C)cc(C)n2)cc1 | . | -0.8&3.5 | 7.0&0.6 | . | .
C=CCC1(CC=C)CCCN1C(=O)CC1C(=O)NCCN1Cc1ccccc1OC (stereo not drawn) | -4.7 | 3.7 | 3.3 | . | -5.9%
O=C(NNc1cccc(Cl)n1)c1c(F)cccc1F | 0.7 | 1.2 | 2.7 | . | -2.7%
CCCCCCCC(=O)N/N=C(/C)c1c(O)cc(C)oc1=O | -23.1 | -1.9 | 92.3 | -1.1 | ?
CCOc1ccc(CC(=O)Nc2cc(=O)n(C)c(=O)n2C)cc1 | 0.6 | 1.2 | -14.2 | . | 1.5%
C=CCn1c(SCC(=O)Nc2cccc3ccccc23)nc(O)c(CC)c1=O | -1.2 | 4.2 | 22.6 | -40.5 | -2.0%
COc1ccccc1CNC(=O)Cn1c(=O)oc2cc(Cl)ccc21 | . | -0.1 | 3.6 | . | 1.2%
COCCNC(=O)[C@@H]1CCCN1C(=O)C1CCN(S(=O)(=O)c2ccc(C)cc2)CC1 | . | 0.0 | 2.1 | . | .
CSc1ccccc1NC(=O)c1cc(S(=O)(=O)N(C)C)ccc1N1CCCC1 | . | -0.6 | -5.0 | . | .
O=C1c2ccccc2C(=O)N1Cc1nc(-c2ccncc2)no1 | 3.5 | 0.2 | -1.9 | -1.3 | -5.5%
CC(C)CCNC(=O)NC(=O)COC(=O)/C=C/c1cnc2ccccc2n1 | -0.9 | -13.0 | 91.5 | -10.5 | .
